# GIV-Gai inh = blocks GIV peptide binding to rat Galpha-i3 | percent of control (FP), % (concentration not given with the values) | hit rate 0.42% among 210,000 | P08753 | AID 1224905 | Galpha-i3/FITC-GIV peptide fluorescence polarization, 90 min; hits give low values; scaled: aluminum fluoride 0%, vehicle 100%;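 active means replicate mean at 85% of control or lower, very high polarization wells dropped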;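 further: wells of about 15 µL received 100 nL stock; the first replicate is given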
# Target sequence (P08753 whole entry, looked up): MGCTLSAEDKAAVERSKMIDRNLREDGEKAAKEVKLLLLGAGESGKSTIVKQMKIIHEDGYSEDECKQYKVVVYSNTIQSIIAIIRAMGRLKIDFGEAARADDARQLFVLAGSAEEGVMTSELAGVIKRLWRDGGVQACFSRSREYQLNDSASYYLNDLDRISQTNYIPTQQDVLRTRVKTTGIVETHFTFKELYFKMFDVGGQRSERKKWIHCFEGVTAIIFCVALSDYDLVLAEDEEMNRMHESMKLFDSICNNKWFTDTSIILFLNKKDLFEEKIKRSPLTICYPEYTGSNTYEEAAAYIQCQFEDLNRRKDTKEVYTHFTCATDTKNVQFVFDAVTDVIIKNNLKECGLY
# HCMV NEC inh = inhibitors of HCMV UL50-UL53 nuclear egress complex interaction | inhibition, % (concentration not given with the values) | hit rate 0.15% among 190,000 | AID 1918969 | HTRF UL50-UL53 interaction, normalized percent inhibition;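 active means both replicates at 50% or more, plus weaker picks with an unusually low signal ratio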;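 further: stock transfer was 100 nL into about 20 µL; 0% = negative control wells and 100% = wells with untagged competitor protein; inactives centre near -12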
# Sa growth 42C = blocks Staphylococcus aureus growth; S. aureus RN4220 growth, OD600, 20 h, 42 °C; hits give low values; hit rate 0.53% among 170,000; relative growth, % (concentration not given with the values);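 active means growth at 42 °C up to 50% and 20 or more points under that at 30 °C, or under 10% at both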;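 further: 300 nL library stock went into each well; scaled to the means of positive and negative controls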
# Sa growth 42C second temp = recorded beside Sa growth 42C, whose call it bears; relative growth, %; measured here: growth at 30 °C;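 optical density after 20 h as mean of two plates; 100% = untreated growth and lower means inhibition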
# Starred values were filed as active, the others as inactive; / = no result given.
[1] O=C(NC1CCCCC1)c1cccc(S(=O)(=O)NCc2ccccc2)c1
[2] O=C(CN1C(=O)c2ccccc2C1=O)Nc1ccc2c(c1)CCCN2C(=O)c1ccccc1
[3] O=C(Cn1ncc2c([nH]c3ccccc32)c1=O)NCc1cccc(Cl)c1
[4] CCN(CCCNC(=O)CSc1cc(=O)n(C)c2cc(Cl)ccc12)c1ccccc1
[5] Cc1cccn2c(=O)c(C=NCc3ccco3)c(Nc3ccc(Cl)cc3)nc12
[6] O=C(Cc1ccc(Cl)cc1Cl)NC1CC1
[7] CCOC(=O)Nc1ccc2c(COC(=O)c3oc4ccc(Br)cc4c3C)cc(=O)oc2c1
[8] N#CC1=C(N)N2C(=C(C#N)C13CCCC3)Nc1ccccc12
Screen / compound no.	1	2	3	4	5	6	7	8
GIV-Gai inh	/	98	104	105	/	/	/	105
HCMV NEC inh	14	-12	/	3	-6	-28	-10	-42
Sa growth 42C	106	/	90	103	104	95	91	130
Sa growth 42C second temp	97	/	69	89	96	92	96	61

[9] COC(=O)c1cc(NC(=S)NN(C)C)ccc1Cl
[10] CCCCOc1ccc(C(=O)Nc2cc(-c3cn4cccnc4n3)ccc2OC)cc1
[11] CCOc1ccc2nc(N3CCCC(C(=O)Nc4ccc(OC)c(Cl)c4)C3)sc2c1 (centres undefined)
[12] CC1(C)CC(=O)c2cc(-c3ccccc3)n(CC(=O)O)c2C1
[13] COCCCn1c(=O)/c(=C\c2ccc(Br)cc2)s/c1=C(/C#N)C(=O)NCc1ccco1
[14] Cc1oc2ccc(OCc3ccccc3)cc2c1C(=O)Nc1ccc(Cl)cc1
[15] CC1CCCCN1CCNC(=O)C(C)N1C(=O)CCCc2ccccc21 (centres undefined)
[16] O=C(NN=C1CCCC1)c1cccnc1
Screen / compound no.	9	10	11	12	13	14	15	16
GIV-Gai inh	/	103	103	99	/	108	119	111
HCMV NEC inh	8	/	-34	-29	-25	-14	6	2
Sa growth 42C	90	87	125	73	99	/	/	98
Sa growth 42C second temp	87	91	84	97	89	/	/	100

# Some of the entries so far, as tab-separated lines:
cpd	Compound	GIV-Gai inh	HCMV NEC inh	Sa growth 42C	Sa growth 42C second temp
9	COC(=O)c1cc(NC(=S)NN(C)C)ccc1Cl	/	8	90	87
12	CC1(C)CC(=O)c2cc(-c3ccccc3)n(CC(=O)O)c2C1	99	-29	73	97
13	COCCCn1c(=O)/c(=C\c2ccc(Br)cc2)s/c1=C(/C#N)C(=O)NCc1ccco1	/	-25	99	89

# Later entries
[17] CNC(=O)Cc1c(Cl)sc2ccccc12
[18] Cc1ccccc1CNC(=O)c1cccc(NC(=O)c2nsc3ccccc23)c1
[19] COc1cc(NC(=O)CCc2c(C)nn(-c3ccc4nnc(C)n4n3)c2C)cc(OC)c1OC
[20] COc1cccc(CNCc2ccccc2)c1
[21] O=c1ccc(S(=O)(=O)N2CCCC2)cn1Cc1cc(=O)n2cc(Br)ccc2n1
[22] COc1ccc(C(=O)COC(=O)c2ccc(N(C)C)cc2)cc1
[23] CCc1ccccc1NC(=O)c1c[nH]c2ccccc2c1=O
[24] COc1ccccc1NC(=O)CSc1nc2c(oc3ccccc32)c(=O)n1Cc1ccco1
Screen / compound no.	17	18	19	20	21	22	23	24
GIV-Gai inh	102	102	104	102	/	/	/	101
HCMV NEC inh	-13	/	/	-5	-62	-15	-110	-10
Sa growth 42C	102	91	79	97	119	93	16	111
Sa growth 42C second temp	90	84	84	81	86	92	0	77

[25] Cc1cc(N2CCCCC2)nc2ccc(NC(=O)/C=C/c3ccccc3Cl)cc12
[26] Nc1ccc(Cc2nc3ccccc3s2)cc1
[27] COC(=O)c1cc(C(=O)OC)cc(-n2c(C)cc(C(=O)CSc3nnc4cc(C)c5ccccc5n34)c2C)c1
[28] COc1ccc(CCNC(=O)CCc2cn(Cc3ccccc3Cl)c3ccccc23)c(OC)c1
[29] CCc1nn(C(CC)C(=O)NCc2ccc(F)cc2)c(=O)c2cc3occc3n12 (centres undefined)
[30] Cc1ccc(C(=O)Oc2ccccc2N2CCOCC2)cc1
[31] O=C(CCCN1C(=O)CSc2ncccc21)NCC1CCCO1 (centres undefined)
[32] Cc1ccc(-c2noc(CNS(=O)(=O)c3ccc(F)cc3)n2)cc1
Screen / compound no.	25	26	27	28	29	30	31	32
GIV-Gai inh	99	/	99	110	104	100	96	102
HCMV NEC inh	-21	0	0	/	-20	-19	-21	-19
Sa growth 42C	98	93	/	95	116	94	/	108
Sa growth 42C second temp	63	96	/	92	84	91	/	90

[33] CCOc1ccc(NC(=O)NCCCn2c(-c3ccncc3)nc3cccnc32)cc1
[34] COc1ccc(Nc2cc(C(=O)NC3CCCC3)c3ccccc3n2)cc1
[35] COCCN1Cc2cccc(C(=O)NCc3ccc(C)cc3)c2C1=O
[36] C/C(=N\OCc1nc2c3cnn(C)c3ncn2n1)c1cccs1
[37] CCOC(=O)N1CCN(C(=O)CCN2C(=O)/C(=C\c3ccco3)SC2=S)CC1
[38] Cc1sc2ncn(CC(=O)NCC(=O)N(C)Cc3ccccc3)c(=O)c2c1C
[39] O=C(Cn1c(=O)n(-c2ccccc2)c(=O)n1CC(=O)N1CCOCC1)N1CCOCC1
[40] Cc1ccccc1NC(=O)CCCn1c(=O)c2cccn2c2ccccc21
Screen / compound no.	33	34	35	36	37	38	39	40
GIV-Gai inh	110	107	101	/	104	/	99	105
HCMV NEC inh	-6	-14	-18	-12	-72	0	/	-6
Sa growth 42C	/	107	84	93	94	97	90	84
Sa growth 42C second temp	/	87	82	94	73	92	79	89

[41] COC(=O)c1ccc2c(=O)n(CCN3CCOCC3)c(SCC(=O)Nc3ccccc3OC)nc2c1
[42] Cc1cccc(-c2nnc3n(CCc4ccccc4)c(=O)c4ccccc4n23)c1
[43] O/N=C(\c1ccccc1)c1ccc(Cl)cc1
[44] CC(=O)N1CC(C)C(=O)Nc2ccccc21 (centres undefined)
[45] C/C(=N\NC(=S)N1CCCC1)c1ccccc1
[46] CCOC(=O)c1cc2sc(C)cc2n1CC(=O)N1CCCCC1C (centres undefined)
[47] Cc1ccc(CNC(=O)c2ccc(N3CCCC3)c(NC(=O)Nc3ccc(F)c(Cl)c3)c2)cc1
[48] COc1ccccc1NC(=O)Nc1nnc(N2CCCCC2C)s1 (centres undefined)
Screen / compound no.	41	42	43	44	45	46	47	48
GIV-Gai inh	100	101	108	/	99	96	96	105
HCMV NEC inh	-23	-9	-18	0	-13	5	/	/
Sa growth 42C	109	103	118	86	101	100	86	95
Sa growth 42C second temp	93	86	73	91	76	94	89	86

[49] CN(C)Cc1ccccc1C(O)c1ccccc1 (centres undefined)
[50] O=C(Nc1ccc(I)cc1)c1nsc(Cl)c1Cl
[51] CN(C)N1C(N)=C(C#N)C(c2cccc(Cl)c2)C2=C1CC(C)(C)CC2=O (centres undefined)
[52] CCCc1ccc(C(=O)Nc2cnc3ccccc3c2)cc1
[53] COC(=O)c1sc2cc(Cl)ccc2c1OC(C)C
[54] COc1ccccc1C1CCN(Cc2ccccc2)CC1
[55] CC(Sc1n[nH]c(N)n1)C(=O)C12CC3CC(CC(C3)C1)C2 (centres undefined)
[56] Cc1csc(N2CCc3ccccc32)n1
Screen / compound no.	49	50	51	52	53	54	55	56
GIV-Gai inh	101	101	99	100	98	105	/	98
HCMV NEC inh	-6	/	-7	9	-7	4	6	-13
Sa growth 42C	109	96	98	87	126	103	118	99
Sa growth 42C second temp	59	94	89	95	93	100	101	79

# Values in list order from the list:
# Nos. 48–56 in GIV-Gai inh read 105, 101, 101, 99, 100, 98, 105, /, 98
# Nos. 48–56 in Sa growth 42C second temp read 86, 59, 94, 89, 95, 93, 100, 101, 79
# Nos. 48–56 in HCMV NEC inh read /, -6, /, -7, 9, -7, 4, 6, -13

# Later entries:
[57] Cc1onc(-c2c(Cl)cccc2Cl)c1CSC(=S)N(C)C
[58] CC(=O)NC1CC(=O)N(c2ccc3c(c2)OCCO3)C1 (centres undefined)
[59] O=S(=O)(NCCc1cccs1)c1ccc2ccccc2c1
[60] O=C(c1ccc(CSc2nc3ccncc3n2Cc2ccccc2)cc1)N1CCCCCC1
[61] CCc1ccccc1N(CC)C(=O)C(=O)Nc1ccc2nc3n(c(=O)c2c1)CCCCC3
[62] CCc1ccc(NC(=O)C2CC(c3cn(CC)nc3C)=NO2)cc1 (centres undefined)
[63] Cc1oc2cc(Br)c(OCC(=O)OC(C)(C)C)cc2c1C(=O)OC(C)C
[64] COc1ccccc1NC(=O)CN(C)S(=O)(=O)c1ccc2c(c1)CC(C)N2C(=O)C1CC1 (centres undefined)
Screen / compound no.	57	58	59	60	61	62	63	64
GIV-Gai inh	98	95	101	104	97	102	106	103
HCMV NEC inh	-6	/	-10	-25	-20	/	15	-28
Sa growth 42C	118	113	81	110	112	98	/	86
Sa growth 42C second temp	89	93	86	73	82	85	/	83

[65] CCS(=O)(=O)c1ncc(N(Cc2ccc(F)cc2)Cc2ccco2)c(C(=O)Nc2cc(C)ccc2C)n1
[66] COc1ccc(CNc2nccn(-c3ccc4c(c3)OCO4)c2=O)cc1OC
[67] CC(C)CCNC(=O)c1cn(C)c2ccc(S(=O)(=O)N3CCCC3)cc2c1=O
[68] Cc1cc(C)c(C(=O)Nc2ccc(C)c(C)c2)c(CC(C)(C)C(=O)O)c1
[69] Cn1c(=O)c2c(SCC(=O)NCc3ccco3)nc(-c3ccccc3)nc2n(C)c1=O
[70] Fc1c(F)c(N2CCOCC2)c(F)c(F)c1-c1ccccc1
[71] COc1ccc(-c2csc(/N=C/N(C)C)n2)cc1OC
[72] CNC(=O)CSc1nnc(SCCC(=O)O)s1
Screen / compound no.	65	66	67	68	69	70	71	72
GIV-Gai inh	96	101	101	99	98	101	/	/
HCMV NEC inh	-45	-63	8	-18	/	-5	-66	-11
Sa growth 42C	89	/	99	109	86	93	78	104
Sa growth 42C second temp	84	/	106	95	89	110	90	97

[73] CC1=C(c2ccc(C)c(C)c2)S(=O)(=O)N(Cc2ccc(C(=O)O)cc2)C1=O
[74] CN(CC(=O)NCc1ccccc1)S(=O)(=O)c1ccc2c(c1)CCC(=O)N2
[75] CC(NC(=S)NC1CCCCC1)C(c1ccccc1)N1CCN(C)CC1 (centres undefined)
[76] Cc1ccc(O)c(C(CC(=O)NCC2(c3ccccc3)CCOCC2)c2ccccc2)c1 (centres undefined)
[77] CCCCc1nn2c(=O)cc(COC(=O)c3ccccc3NC(=O)c3cccc(C)c3)nc2s1
[78] Cc1nc(-c2ccc(Cl)cc2)sc1CCNC(=O)C(=O)Nc1ccc(F)cc1F
[79] CCN(C(=O)c1ccc(Br)o1)C1CCS(=O)(=O)C1 (centres undefined)
[80] Cc1cc(C)n2nc(C(=O)NC34CC5CC(CC(C5)C3)C4)nc2n1
Screen / compound no.	73	74	75	76	77	78	79	80
GIV-Gai inh	105	103	101	110	102	108	97	/
HCMV NEC inh	-71	/	-16	/	/	/	-23	-14
Sa growth 42C	/	85	107	85	96	85	87	91
Sa growth 42C second temp	/	85	87	77	91	94	86	94

[81] CCOc1ccc2nc(NC3=NCN(Cc4cccnc4)CN3)nc(C)c2c1
[82] CS(=O)(=O)Cc1cccc(C(=O)Oc2ccccc2C#N)c1
[83] COC(=O)c1c(NC(=O)COc2cc(C)ccc2C(C)C)sc2c1CCC(C)C2 (centres undefined)
[84] COc1ccc(NC(=O)CC2SCCNC2=O)cc1 (centres undefined)
[85] Nc1ccccc1N1CCOCC1
[86] Cc1ccc(-n2c(O)c(/C=N/c3ncn[nH]3)c3ccccc3c2=O)cc1
[87] COc1ccccc1-n1c(C)coc1=O
[88] CCOC(=O)C1=C(CSc2nnc(-c3cccnc3)n2Cc2ccccc2)NC(=O)NC1C (centres undefined)
Screen / compound no.	81	82	83	84	85	86	87	88
GIV-Gai inh	102	/	104	/	/	/	98	/
HCMV NEC inh	0	-2	-28	-8	-32	-45	-6	-7
Sa growth 42C	/	106	100	123	95	60	120	105
Sa growth 42C second temp	/	102	93	83	88	84	101	99

# Three structures out of the list, ordered by molar mass, rising:
[30] Cc1ccc(C(=O)Oc2ccccc2N2CCOCC2)cc1
[22] COc1ccc(C(=O)COC(=O)c2ccc(N(C)C)cc2)cc1
[73] CC1=C(c2ccc(C)c(C)c2)S(=O)(=O)N(Cc2ccc(C(=O)O)cc2)C1=O
Screen / compound no.	30	22	73
GIV-Gai inh	100	/	105
HCMV NEC inh	-19	-15	-71
Sa growth 42C	94	93	/
Sa growth 42C second temp	91	92	/

# Complete entries, quoted from the list. Values in the order: GIV-Gai inh | HCMV NEC inh | Sa growth 42C | Sa growth 42C second temp
# Shown for `CCOc1ccc2nc(NC3=NCN(Cc4cccnc4)CN3)nc(C)c2c1` : 102 | 0 | / | /
# Shown for `COc1ccc(NC(=O)CC2SCCNC2=O)cc1` (centres undefined) : / | -8 | 123 | 83
# Shown for `COC(=O)c1c(NC(=O)COc2cc(C)ccc2C(C)C)sc2c1CCC(C)C2` (centres undefined) : 104 | -28 | 100 | 93
